A1 apoptosis 2 – blocks A1, raising caspase activity; 24,000 tested, under 10 active; MEF A1-2A-BIM cells, caspase-Glo luminescence, 3 h; percent of clofoctol response, DMSO zero; caspase activation, % (concentration not given with the values); in the data active = caspase activation above about 5.9%;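 also: wells of about 30 µL received 50 nL stock; the first replicate is given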
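Material: A1-2A-BIM-expressing MEF cells. Buffer or medium: RPMI-1640 plus 10% FBS. Incubation: cells settled overnight, compound exposure 3 h at 37 °C, 5% CO2. Signal: Caspase-Glo 3/7 luminescence, 1 h at room temperature.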
Active calls of the source: *. Not all compounds are listed; the hit share may differ from the screen's.

Sample of the layout (7 entries):
SMILES	A1 apoptosis 2
O=C(N/N=C/c1cc(Br)cs1)c1ccccn1	-10
O=C(CCCCCCC(=O)Nc1ccccc1O)N/N=C/c1cccc(C(=O)O)c1	0.3
C[C@H]1CN([C@@H](C)CO)C(=O)Cc2cc(NC(=O)CCCCCC(=O)Nc3ccccc3N)ccc2O[C@@H]1CN(C)S(=O)(=O)c1cn(C)cn1	0.6
C[C@@H]1CN([C@H](C)CO)C(=O)CCCn2cc(nn2)CO[C@@H]1CN(C)S(=O)(=O)c1ccc(F)cc1	-0.4
C[C@H](CO)N1C[C@H](C)[C@@H](CN(C)C(=O)NC2CCCCC2)Oc2ccc(NS(=O)(=O)c3cccs3)cc2CC1=O	-0.2
C[C@H]1CCCCO[C@H](CN(C)CC2CCCCC2)[C@@H](C)CN([C@@H](C)CO)C(=O)c2cc(NC(=O)Cc3ccccc3)ccc2O1	-0.6
C[C@H](CO)N1C[C@H](C)[C@H](CN(C)Cc2ccc(-c3ccccc3)cc2)Oc2c(NS(=O)(=O)c3cccs3)cccc2C1=O	0.1

The list itself (from the top)
SMILES	A1 apoptosis 2
O=C(N/N=C/c1cc(Br)cs1)c1ccccn1	-10
O=C(CCCCCCC(=O)Nc1ccccc1O)N/N=C/c1cccc(C(=O)O)c1	0.3
C[C@H]1CN([C@@H](C)CO)C(=O)Cc2cc(NC(=O)CCCCCC(=O)Nc3ccccc3N)ccc2O[C@@H]1CN(C)S(=O)(=O)c1cn(C)cn1	0.6
C[C@@H]1CN([C@H](C)CO)C(=O)CCCn2cc(nn2)CO[C@@H]1CN(C)S(=O)(=O)c1ccc(F)cc1	-0.4
C[C@H](CO)N1C[C@H](C)[C@@H](CN(C)C(=O)NC2CCCCC2)Oc2ccc(NS(=O)(=O)c3cccs3)cc2CC1=O	-0.2
C[C@H]1CCCCO[C@H](CN(C)CC2CCCCC2)[C@@H](C)CN([C@@H](C)CO)C(=O)c2cc(NC(=O)Cc3ccccc3)ccc2O1	-0.6
C[C@H](CO)N1C[C@H](C)[C@H](CN(C)Cc2ccc(-c3ccccc3)cc2)Oc2c(NS(=O)(=O)c3cccs3)cccc2C1=O	0.1
C[C@H](CO)N1C[C@H](C)[C@@H](CN(C)C)Oc2ccc(NS(=O)(=O)c3cn(C)cn3)cc2CC1=O	1.1
COc1ccc(NC(=O)Nc2cccc3c2O[C@H](CN(C)C(=O)NC(C)C)[C@H](C)CN([C@H](C)CO)C3=O)cc1	-0.4
C[C@@H]1CN([C@@H](C)CO)C(=O)c2cc(NC(=O)Nc3ccccc3)ccc2O[C@@H](C)CCCCO[C@@H]1CN(C)Cc1ccc(C(F)(F)F)cc1	-1.3
C[C@@H]1CN([C@H](C)CO)C(=O)c2cc(NC(=O)Nc3ccccc3)ccc2O[C@H]1CN(C)C(=O)Nc1ccccc1	-0.9
O=C(O)CCCCCCC(=O)N/N=C/c1cccnc1	-0.5
C[C@H]1CCCCO[C@H](CN(C)S(C)(=O)=O)[C@@H](C)CN([C@@H](C)CO)C(=O)c2cc(NC(=O)NC3CCCCC3)ccc2O1	-0.1
C[C@H]1CN([C@@H](C)CO)C(=O)c2cc(NC(=O)Nc3ccccc3)ccc2O[C@@H]1CN(C)C(=O)Nc1ccc(C(F)(F)F)cc1	0.2
COc1ccc([Si](C)(C)[C@@H]2[C@@H](CCO)O[C@]3(C(=O)N(Cc4ccc(NC(=O)[C@H](C)O)cc4)c4ccccc43)[C@H]2C)cc1	-1.0
COc1ccc(CN(C)C[C@@H]2Oc3c(NS(=O)(=O)c4ccc(C)cc4)cccc3C(=O)N([C@H](C)CO)C[C@@H]2C)cc1	0.1
O=C(O)CCCCCC(=O)N/N=C/CCC1CCCCC1	2.0
C[C@H](CO)N1C[C@H](C)[C@@H](CN(C)C)OCCCC[C@H](C)Oc2ccc(NC(=O)Nc3ccc(F)cc3)cc2C1=O	0.0
COc1ccc(NC(=O)N(C)C[C@H]2Oc3ccc(NC(=O)CCCCCC(=O)Nc4ccccc4N)cc3CC(=O)N([C@@H](C)CO)C[C@@H]2C)cc1	0.4
CCCC(O)C#Cc1cnc2c(c1)C(=O)N([C@H](C)CO)C[C@H](C)[C@H](CN(C)S(=O)(=O)c1ccc(F)cc1)O2 (stereo partly specified)	0.1
Cc1noc(C)c1S(=O)(=O)Nc1cccc2c1O[C@@H](CN(C)S(=O)(=O)c1ccccc1)[C@@H](C)CN([C@H](C)CO)C2=O	-1.3
COc1ccc(CN(C)C[C@@H]2Oc3c(NC(=O)Nc4ccc(OC)cc4)cccc3C(=O)N([C@@H](C)CO)C[C@H]2C)cc1	-0.7
C[C@H](CO)N1C[C@H](C)[C@H](CN(C)Cc2ccc(-c3ccccc3)cc2)Oc2c(NC(=O)C3CCOCC3)cccc2C1=O	-0.3
C[C@H]1CN([C@@H](C)CO)C(=O)CCCn2cc(nn2)CO[C@@H]1CN(C)Cc1ccc2c(c1)OCCN2C	-0.3
C[C@@H]1CN([C@H](C)CO)C(=O)c2cc(NC(=O)Cc3ccccc3)ccc2O[C@@H](C)CCCCO[C@H]1CN(C)C(=O)Nc1ccc(F)cc1	1.5
The listing continues.
SMILES	A1 apoptosis 2
C[C@@H]1CCCCO[C@H](CN(C)C(=O)CCC(F)(F)F)[C@@H](C)CN([C@H](C)CO)C(=O)c2cc(NC(=O)c3ccncc3)ccc2O1	0.4
COc1ccc(CN(C)C[C@H]2OCCCC[C@H](C)Oc3ccc(NC(=O)Nc4ccc(F)cc4)cc3C(=O)N([C@H](C)CO)C[C@@H]2C)cc1	0.2
CC(C)NC(=O)Nc1cccc2c1O[C@H](CN(C)C(=O)Nc1ccccc1)[C@@H](C)CN([C@@H](C)CO)C2=O	0.9
Cc1noc(C)c1S(=O)(=O)Nc1cccc2c1O[C@H](CN(C)C(=O)Nc1ccc(C(F)(F)F)cc1)[C@H](C)CN([C@H](C)CO)C2=O	-0.4
C[C@@H]1CCCCO[C@H](CN(C)C(=O)C2CCCCC2)[C@@H](C)CN([C@@H](C)CO)C(=O)c2cc(NS(=O)(=O)c3cn(C)cn3)ccc2O1	1.6
Cc1ccc(S(=O)(=O)Nc2ccc3c(c2)C(=O)N([C@H](C)CO)C[C@H](C)[C@@H](CN(C)C(=O)c2ccccc2)OCCCC[C@@H](C)O3)cc1	0.8
C[C@H]1CN([C@@H](C)CO)C(=O)Cc2cc(NC(=O)C3CCCCC3)ccc2O[C@H]1CN(C)C(=O)Nc1ccc(F)cc1	0.5
C[C@H]1CN([C@@H](C)CO)C(=O)Cc2cc(NS(=O)(=O)c3cccs3)ccc2O[C@H]1CN(C)S(=O)(=O)c1ccc(Cl)cc1	-0.1
CCCN(C)C[C@H]1OCCCC[C@H](C)Oc2ccc(NC(=O)CCC(F)(F)F)cc2C(=O)N([C@H](C)CO)C[C@@H]1C	-0.3
COC(=O)CCCCCCC(=O)N/N=C/c1cc(Br)cc(Br)c1O	1.2
Cc1ccc(S(=O)(=O)N(C)C[C@@H]2OCCCC[C@@H](C)Oc3ccc(NC(=O)Nc4c(C)noc4C)cc3C(=O)N([C@H](C)CO)C[C@H]2C)cc1	-0.3
C[C@@H]1CN([C@H](C)CO)C(=O)c2cccc(NC(=O)Nc3ccccc3)c2O[C@H]1CN(C)Cc1ccc(C(F)(F)F)cc1	-0.2
C[C@@H]1CN([C@H](C)CO)C(=O)c2cc(NC(=O)CCN3CCOCC3)ccc2O[C@H]1CN(C)Cc1ccc(C(F)(F)F)cc1	-1.0
C[C@@H]1CN([C@@H](C)CO)C(=O)c2cc(NC(=O)NC3CCCCC3)ccc2O[C@@H]1CN(C)C(=O)NC1CCCCC1	-0.7
CCOC(=O)[C@H](Cc1ccccc1)NC(=O)Cn1cc(COc2ccccc2/C=C(C)/C=C/C(=O)NO)nn1	0.7
C[C@H](CO)N1C[C@H](C)[C@H](CN(C)Cc2ccc(Cl)c(Cl)c2)Oc2c(NC(=O)c3nc4ccccc4s3)cccc2C1=O	-0.8
C[C@H](CO)N1C[C@H](C)[C@@H](CN(C)Cc2ccc(Oc3ccccc3)cc2)Oc2ccc(NC(=O)Cn3cnnn3)cc2CC1=O	-0.7
C[C@@H]1CCCCO[C@@H](CN(C)C)[C@@H](C)CN([C@@H](C)CO)C(=O)c2cc(NC(=O)Nc3cccc4ccccc34)ccc2O1	0.3
COc1ccc(NC(=O)Nc2cccc3c2O[C@H](CN(C)S(=O)(=O)c2ccccc2)[C@H](C)CN([C@@H](C)CO)C3=O)cc1	0.4
C[C@@H]1CCCCO[C@H](CN(C)S(=O)(=O)c2ccccc2)[C@@H](C)CN([C@H](C)CO)C(=O)c2cc(NC(=O)CCCN(C)C)ccc2O1	1.1
C[C@H](CO)N1C[C@H](C)[C@H](CN(C)Cc2ccncc2)Oc2c(NC(=O)c3ccncc3)cccc2C1=O	0.1
COc1ccc(S(=O)(=O)Nc2cccc3c2O[C@H](CN(C)S(C)(=O)=O)[C@H](C)CN([C@H](C)CO)C3=O)cc1	-0.2
C[C@@H]1CCCCO[C@@H](CN(C)Cc2ccccc2)[C@@H](C)CN([C@H](C)CO)C(=O)c2cc(NC(=O)c3ccccc3)ccc2O1	0.6
O=C(CCCCC(=O)NN=C1CCCCCCC1)NO	0.4
C[C@H](CO)N1C[C@H](C)[C@@H](CN(C)CC2CCCCC2)Oc2ccc(N(C)C)cc2CC1=O	-1.2
The results go on:
SMILES	A1 apoptosis 2
COc1ccc(S(=O)(=O)Nc2ccc3c(c2)C(=O)N([C@@H](C)CO)C[C@@H](C)[C@@H](CN(C)Cc2ccncc2)OCCCC[C@H](C)O3)cc1	-0.3
O=C(CCCCCC(=O)N/N=C/c1cc(Cl)cc(Cl)c1O)NO	0.7
C[C@H](CO)N1C[C@H](C)[C@@H](CN(C)Cc2ccncc2)Oc2c(NC(=O)c3nc4ccccc4s3)cccc2C1=O	-2.9
C[C@@H]1CCCCO[C@@H](CN(C)C(=O)Nc2ccc3c(c2)OCO3)[C@@H](C)CN([C@@H](C)CO)C(=O)c2cc(NC(=O)Nc3ccc(C(F)(F)F)cc3)ccc2O1	0.1
Cc1noc(C)c1S(=O)(=O)Nc1ccc2c(c1)CC(=O)N([C@H](C)CO)C[C@H](C)[C@H](CN(C)S(C)(=O)=O)O2	0.4
C[C@H](CO)N1C[C@H](C)[C@H](CN(C)S(=O)(=O)c2ccc(Cl)cc2)Oc2ccc(NC(=O)Nc3ccc4c(c3)OCO4)cc2C1=O	0.7
C[C@@H]1CN([C@@H](C)CO)C(=O)Cc2cc(NC(=O)c3ccncc3)ccc2O[C@@H]1CN(C)Cc1ccc(-c2ccccc2)cc1	-0.2
C[C@@H]1CN([C@@H](C)CO)C(=O)c2cccc(N(C)C)c2O[C@H]1CN(C)Cc1ccc2c(c1)OCO2	-0.5
C[C@H](CO)N1C[C@H](C)[C@@H](CN(C)S(C)(=O)=O)Oc2ccc(NC(=O)CCN3CCOCC3)cc2C1=O	-0.9
C[C@@H]1CN([C@H](C)CO)C(=O)c2cccc(NC(=O)c3ccncc3)c2O[C@H]1CN(C)Cc1ccc(Oc2ccccc2)cc1	0.0
CNC[C@H]1Oc2ccc(NC(=O)Nc3ccccc3)cc2C(=O)N([C@@H](C)CO)C[C@@H]1C	-0.2
Cc1noc(C)c1S(=O)(=O)Nc1ccc2c(c1)C(=O)N([C@@H](C)CO)C[C@@H](C)[C@H](CN(C)C)O2	0.3
CNC[C@@H]1Oc2ccc(NC(=O)NC3CCCCC3)cc2C(=O)N([C@H](C)CO)C[C@@H]1C	-0.1
C[C@H]1CCCCO[C@@H](CN(C)Cc2ccccc2)[C@@H](C)CN([C@@H](C)CO)C(=O)c2cc(NC(=O)Nc3ccc(C(F)(F)F)cc3)ccc2O1	1.1
C[C@@H]1CN([C@@H](C)CO)C(=O)c2cc(NC(=O)Nc3cccc4ccccc34)ccc2O[C@@H](C)CCCCO[C@@H]1CN(C)Cc1ccc2c(c1)OCO2	0.3
COc1ccc(NC(=O)N(C)C[C@@H]2OCCCC[C@H](C)Oc3ccc(NC(=O)c4ccncc4)cc3C(=O)N([C@@H](C)CO)C[C@H]2C)cc1	0.3
COc1ccc(-c2cnc3c(c2)C(=O)N([C@H](C)CO)C[C@H](C)[C@H](CN(C)Cc2cccc(C(F)(F)F)c2)O3)cc1	1.0
C[C@H](CO)N1C[C@H](C)[C@H](CN(C)S(=O)(=O)c2cn(C)cn2)OCCCC[C@H](C)Oc2ccc(NC(=O)c3ccncc3)cc2C1=O	0.5
CC(C)NC(=O)Nc1ccc2c(c1)C(=O)N([C@H](C)CO)C[C@H](C)[C@@H](CN(C)S(=O)(=O)c1ccc(Cl)cc1)OCCCC[C@H](C)O2	-1.8
C[C@@H]1CN([C@@H](C)CO)C(=O)c2cc(NC(=O)CCC(F)(F)F)ccc2O[C@@H](C)CCCCO[C@@H]1CN(C)Cc1ccc2c(c1)OCO2	0.6
O=C(N/N=C/c1cn(Cc2ccccc2)c2ccccc12)c1ccccn1	-2.9
COc1cc(O)cc(OC)c1/C=N/NC(=O)c1ccccc1O	-0.3
C[C@@H]1CN([C@@H](C)CO)C(=O)c2cccc(NS(=O)(=O)c3cn(C)cn3)c2O[C@H]1CN(C)Cc1ccncc1	-0.5
C[C@@H]1CCCCO[C@H](CN(C)C(=O)NC2CCCCC2)[C@@H](C)CN([C@H](C)CO)C(=O)c2cc(NS(C)(=O)=O)ccc2O1	-0.5
C[C@@H]1CN([C@H](C)CO)C(=O)c2cccc(NS(=O)(=O)c3ccc(F)cc3)c2O[C@@H]1CN(C)C	1.2
